# Compound activity: PubChem, several laboratories
# UCH37 DUB inh – inhibitors of human deubiquitinating enzyme UCH37; purified proteasome/UCH37, Ub-AMC cleavage fluorescence; inhibition, % (concentration not given with the values); actives 0.33% (n = 330,000);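 active means mean of two replicates above 20%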;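 further: 0% = compound-free wells with enzyme and 100% = wells lacking proteasome; stock transfer was 100 nL into about 20 µL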
#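 Material: human UCH37 enzyme supplied as purified proteasome complex / Amount: 0.15 nM proteasome as dispensed / Buffer or medium: pH 7.4 Tris-HCl (50 mM) with ovalbumin, ATP-MgCl2, DTT / Times: preincubation 30 min, reaction 25 min, room temperature / Technique: AMC fluorescence from Ub-AMC cleavage, excitation 355 nm, emission 460 nm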
# ALR H2O2 inh – inhibitors of human sulfhydryl oxidase ALR. AID 485317. inhibition, % (concentration not given with the values). P55789. actives 3.8% (n = 290,000). purified ALR, DTT oxidation, H2O2 HRP-luminol luminescence;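 active means mean and each replicate at 75% or more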;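 further: stock transfer was 7.5 nL into about 7.5 µL; 0% = neutral wells and 100% = wells with inactivated enzyme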
# Beta2AR agonist – agonists of human beta-2 adrenergic receptor inducing internalization | response, % (concentration not given with the values) | P07550 | AID 504454 | actives 0.43% (n = 340,000) | Am2.2-beta2AR cells, FAP receptor internalization, flow cytometry; reference of the scale not given here;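 active means response above a set limit, near 3 SD of response in nonfluorescent compounds, cut at about 42% in these data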;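 further: stock transfer was 100 nL into about 11 µL; a reference agonist was the positive control; negative values mostly stem from fluorescent compounds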
# Target sequence (P07550 whole entry, looked up): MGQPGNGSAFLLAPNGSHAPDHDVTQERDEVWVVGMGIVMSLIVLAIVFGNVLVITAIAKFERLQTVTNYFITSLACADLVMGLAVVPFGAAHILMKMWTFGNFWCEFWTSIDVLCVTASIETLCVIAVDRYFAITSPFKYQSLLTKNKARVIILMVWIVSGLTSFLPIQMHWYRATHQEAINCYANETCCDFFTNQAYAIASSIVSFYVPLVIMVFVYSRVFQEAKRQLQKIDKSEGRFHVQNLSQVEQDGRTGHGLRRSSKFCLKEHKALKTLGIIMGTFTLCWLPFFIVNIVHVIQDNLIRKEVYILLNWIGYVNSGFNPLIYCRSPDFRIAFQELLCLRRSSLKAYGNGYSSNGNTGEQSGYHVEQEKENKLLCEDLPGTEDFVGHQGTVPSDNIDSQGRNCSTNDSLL
# HNF4A DNA FP – change in binding of human HNF4 alpha to DNA | AID 1224865 | HNF4a-FITC DNA binding, fluorescence polarization, 1 h | activity change, % at 10 µM | P41235 | actives 0.3% (n = 360,000); in the data active means activity change above about 30%, passing the limit was not always enough;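 further: controls were the assay level and a saturating level of protein; the project sought stronger binding though the title names inhibitors; some compounds called inactive have numbers as strong as hits; positive values seem to mean higher polarization but the record does not say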
# Target sequence (P41235 whole entry, looked up): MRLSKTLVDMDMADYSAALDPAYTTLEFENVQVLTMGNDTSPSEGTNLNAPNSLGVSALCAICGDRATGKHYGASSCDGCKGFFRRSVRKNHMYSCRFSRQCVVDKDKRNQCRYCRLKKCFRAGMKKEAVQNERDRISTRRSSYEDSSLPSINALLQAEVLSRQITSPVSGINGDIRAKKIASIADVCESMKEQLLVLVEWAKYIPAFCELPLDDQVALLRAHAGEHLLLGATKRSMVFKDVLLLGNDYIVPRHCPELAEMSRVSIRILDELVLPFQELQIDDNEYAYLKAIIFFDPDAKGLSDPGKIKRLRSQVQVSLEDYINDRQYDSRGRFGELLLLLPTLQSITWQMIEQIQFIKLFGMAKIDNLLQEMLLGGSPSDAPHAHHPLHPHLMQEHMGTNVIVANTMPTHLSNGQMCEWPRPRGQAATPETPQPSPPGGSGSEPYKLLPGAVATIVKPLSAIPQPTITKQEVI
# rRNA inh HTS – selective bacterial rRNA inhibition in E. coli. E. coli WT GFP vs humanized-ribosome RFP mutants, fluorescence, 24 h; active compounds read low; DMSO median 0, no signal -100. GFP signal change (wild-type ribosome), % (test concentration not listed). actives 1.6% (n = 350,000);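 active means significant combined selectivity score with lowered wild-type GFP, culture density cut under 30%, mutant RFP and density less affected; inactive means any of these conditions unmet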; further: one replicate is shown; some compounds called inactive have numbers as strong as hits
# E coli growth – E. coli growth inhibition. Escherichia coli growth, OD600, 23 h; active compounds read low. actives 0.21% (n = 330,000). OD600 absorbance (no concentration beside the values);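 active means OD600 absorbance below the run mean of sample wells minus 3.6 SD, in any replicate, cut at about 0.56 in these data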;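 further: stock transfer was 300 nL into about 60 µL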
# FGF22 binding – shifts melting point of recombinant human FGF22; calls only at 9.99 µM; recombinant FGF22 thermal shift, SYPRO orange fluorescence; percent of sucrose octasulfate shift, DMSO zero; actives 1.5% (n = 340,000);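 active means melting point raised past a set limit in the mean and every replicate; three in four hits are not shown here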
# rRNA inh HTS OD600 – further read-out of rRNA inh HTS, marked with its call; OD600 change, %; measured here: OD600 growth;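 optical density of the mix in the first replicate; 0 = DMSO median and -100 = no signal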
# rRNA inh HTS RFP – second read-out of rRNA inh HTS, no call of its own (marks repeat the call); RFP signal change, %; measured here: RFP humanized mutant strains;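 first replicate; 0 = DMSO median and -100 = no signal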
# Numbers without * were called inactive; i = inactive; . = not tested or not shown. These rows are one share of the data; count on the stated rates, not on these rows.
Structure	FGF22 binding	rRNA inh HTS RFP	rRNA inh HTS	ALR H2O2 inh	HNF4A DNA FP	rRNA inh HTS OD600	E coli growth	Beta2AR agonist	UCH37 DUB inh
CCCCN1C(=O)C(CC(=O)NC2CCCCC2)CC(C(=O)N(C)C)=C1C (stereo not drawn)	i	0.2	11	.	-1.5	10	.	.	.
CCOCCc1c(O)nc(SC)[nH]c1=O	i	3.1	6	5	-0.7	2	0.66	-5	1.6
CC12CC3(C)CC(C)(C1)CC(C(=O)NCCc1ccc(S(N)(=O)=O)cc1)(C2)C3	i	-3.9	-7	-7	-1.8	3	0.65	-7	4.7
COC(=O)c1ccc(COC(=O)c2ccc(SC)cc2OC)cc1	i	-0.4	13	-10	4.7	7	0.67	4	0.2
CCc1nc2ccc(C(=O)Nc3ccc(OC)c(OC)c3)cn2c1N(CC)Cc1ccc(OC)c(OC)c1	i	-0.3	-10	.	-2.2	-15	.	.	.
Cc1cc(C(=O)COC(=O)c2cccc(S(=O)(=O)N(C)C)c2)c(C)n1CC1CCCO1 (stereo not drawn)	i	1.5	-7	.	-0.6	-11	0.69	3	2.2
CCNS(=O)(=O)c1ccc(NC(=O)Nc2ccccc2OC)cc1	i	-3.4	-11	-3	0.2	-9	0.63	22	1.9
CCCCOc1ccccc1NC(=O)CC1Nc2ccccc2NC1=O (stereo not drawn)	.	.	.	28	4.2	.	0.74	-19	-0.6
CCC1(c2ccc(F)cc2)NC(=O)N(CC(=O)N2c3ccccc3CC2C)C1=O (stereo not drawn)	i	2.7	0	-4	2.5	-30	0.69	-3	0.2
CCCNC(=O)CSc1nnc(-c2ccccc2Br)n1-c1cccc(C(F)(F)F)c1	i	-1.6	-11	3	-0.8	-10	0.71	-23	5.8
CN1C(C)(C)CC(NC(=O)c2ccco2)CC1(C)C	i	-1.6	10	-3	-2.0	8	0.69	4	2.4
O=C(NCCS(=O)(=O)N1CCN(c2cccc(Cl)c2)CC1)c1ccc2c(c1)OCO2	.	5.3	-3	.	1.4	-10	0.71	-5	-1.0
O=C(Cn1cc([N+](=O)[O-])cn1)N1CCCc2ccccc21	i	1.3	14	-15	-1.3	0	0.71	-5	2.2
Cc1ccc2c(c1)cc1c(=O)n(CC(=O)N3CCCC3)nc(C)n12	.	.	.	-3	1.7	.	0.67	-11	-12
CCc1ccc(N(CC(=O)N2CCOCC2)S(C)(=O)=O)cc1	i	-0.3	8	-7	-0.5	5	0.63	0	1.2
CCOC(=O)[C@H]1[C@H]2COc3ccccc3[C@@H]2N2C(=O)c3ccc(Cl)cc3NC(=O)[C@@]12C	i	-10	-16	.	0.2	-20	.	0	3.0
CCn1c(COc2ccc(OC)cc2)nnc1SCc1nc2ccccc2c(=O)[nH]1	.	.	.	-9	.	.	0.72	.	3.6
C=COCCNC(=S)N1CCOCCOCCN(C(=S)NCCOC=C)CCOCCOCC1	i	2.4	9	-10	-6.2	7	0.63	2	-1.2
COc1cc(C(C)=O)ccc1OCC(=O)OC(C)C(=O)c1ccc(F)cc1 (stereo not drawn)	i	0.2	21	-4	1.4	9	0.71	1	-0.2
C/C(N)=C(/C#N)C(=O)CSc1nnc(Nc2ccccc2C)s1	.	.	.	5	0.5	.	0.71	-7	0.2

# Three compounds picked at random from the list so far:
Structure	FGF22 binding	rRNA inh HTS RFP	rRNA inh HTS	ALR H2O2 inh	HNF4A DNA FP	rRNA inh HTS OD600	E coli growth	Beta2AR agonist	UCH37 DUB inh
C/C(N)=C(/C#N)C(=O)CSc1nnc(Nc2ccccc2C)s1	.	.	.	5	0.5	.	0.71	-7	0.2
CCCNC(=O)CSc1nnc(-c2ccccc2Br)n1-c1cccc(C(F)(F)F)c1	i	-1.6	-11	3	-0.8	-10	0.71	-23	5.8
CCCCN1C(=O)C(CC(=O)NC2CCCCC2)CC(C(=O)N(C)C)=C1C (stereo not drawn)	i	0.2	11	.	-1.5	10	.	.	.

# Single records, from the list above. Order of screens: FGF22 binding | rRNA inh HTS RFP | rRNA inh HTS | ALR H2O2 inh | HNF4A DNA FP | rRNA inh HTS OD600 | E coli growth | Beta2AR agonist | UCH37 DUB inh
# CCc1ccc(N(CC(=O)N2CCOCC2)S(C)(=O)=O)cc1 is listed with i | -0.3 | 8 | -7 | -0.5 | 5 | 0.63 | 0 | 1.2
# COC(=O)c1ccc(COC(=O)c2ccc(SC)cc2OC)cc1 is listed with i | -0.4 | 13 | -10 | 4.7 | 7 | 0.67 | 4 | 0.2
# O=C(NCCS(=O)(=O)N1CCN(c2cccc(Cl)c2)CC1)c1ccc2c(c1)OCO2 is listed with . | 5.3 | -3 | . | 1.4 | -10 | 0.71 | -5 | -1.0
# CCCNC(=O)CSc1nnc(-c2ccccc2Br)n1-c1cccc(C(F)(F)F)c1 is listed with i | -1.6 | -11 | 3 | -0.8 | -10 | 0.71 | -23 | 5.8
# CCCCOc1ccccc1NC(=O)CC1Nc2ccccc2NC1=O (stereo not drawn) is listed with . | . | . | 28 | 4.2 | . | 0.74 | -19 | -0.6

# Back to the main list, repeating the two entries before the break.
Structure	FGF22 binding	rRNA inh HTS RFP	rRNA inh HTS	ALR H2O2 inh	HNF4A DNA FP	rRNA inh HTS OD600	E coli growth	Beta2AR agonist	UCH37 DUB inh
COc1cc(C(C)=O)ccc1OCC(=O)OC(C)C(=O)c1ccc(F)cc1 (stereo not drawn)	i	0.2	21	-4	1.4	9	0.71	1	-0.2
C/C(N)=C(/C#N)C(=O)CSc1nnc(Nc2ccccc2C)s1	.	.	.	5	0.5	.	0.71	-7	0.2
O=C1C=C(c2cccc(Br)c2)C[C@@H](c2ccc(Cl)cc2)C1	i	-11	-1	4	-2.2	-19	.	5	2.1
C=CCCCN(Cc1ccccc1)S(=O)(=O)c1ccccc1Br	i	-3.8	-11	4	-0.6	-21	0.66	17	4.7
CC1(C)CC(=O)C2=C(C1)OC(N)=C(C#N)C2c1ccsc1 (stereo not drawn)	.	.	.	-40	1.3	.	0.74	4	3.7
COc1ccc(OCC(O)Cn2c(=N)n(CCN3CCOCC3)c3ccccc32)cc1 (stereo not drawn)	.	.	.	0	-1.0	.	0.67	-10	3.7
C=CCOc1ccc(/C=N/N2C(=O)C(CC(=O)Nc3ccc(F)cc3F)SC2=NC)cc1 (stereo not drawn)	i	1.5	17	.	-2.7	7	.	-7	.
COc1cccc(NC(=O)N2CCCC(C(=O)Nc3ccccc3OC)C2)c1 (stereo not drawn)	.	.	.	-7	2.6	.	0.7	5	0.2
CCOC(CCNC(=O)CCC(=O)Nc1ccc2nc(N3CCN(C)CC3)cc(C)c2c1)OCC	i	-1.5	11	-12	-1.3	6	0.69	17	-96
O=C(COC(=O)CNC(=O)c1cccc(Br)c1)Nc1nnc(-c2ccccc2)o1	i	0.0	15	-3	-4.7	17	0.64	3	3.2
CC(NC(=O)c1ccccc1Cl)C(=O)NCc1cccs1 (stereo not drawn)	i	18	-12	.	0.8	-21	0.71	-4	3.4
Cc1cc(NC(=O)CCC(=O)N(CC(=O)NCC2CCCO2)Cc2ccc(F)cc2)no1 (stereo not drawn)	.	.	.	-4	-3.8	.	0.73	0	1.4
CCCCC(=O)Nc1ccc(N2CCN(c3ccc(F)cc3)CC2)cc1	i	-0.7	4	.	-1.4	11	0.67	0	1.0
Cc1cccc(C)c1NC(=O)NC1(C(=O)NCc2ccncc2)CCCCC1	i	-0.5	0	-1	3.8	8	0.66	1	2.2
O=C(CSc1nc2cc(Cl)ccc2c(=O)n1Cc1ccco1)Nc1ccc(S(=O)(=O)N2CCOCC2)cc1	i	2.8	4	11	4.1	-8	0.71	-6	-2.2
Cc1ccc(NC2Sc3ccccc3NC2=O)cc1Cl (stereo not drawn)	i	17	-9	0	0.8	2	0.69	-2	0.6
O=C(NC1=NCCS1)c1ccc(Cl)c(S(=O)(=O)N2CCCCCC2)c1	i	8.6	-38	.	-3.2	-60	0.67	-15	1.4
O=C(Nc1ccc(-c2nnco2)cc1)c1ccccc1	.	.	.	-1	4.0	.	0.68	0	0.0
CC(=O)Nc1ccc(NC(=O)COC(=O)/C=C/c2ccc3c(c2)OCO3)cc1	i	-1.2	10	-3	-2.5	14	0.71	3	-74
COc1ccc(C(=O)CN2CC(C)SC2=Nc2ccc(Cl)cc2)cc1 (stereo not drawn)	.	.	.	-3	-3.2	.	0.69	-2	2.0
CCN(Cc1cnn(C)c1)Cc1nc(Cc2ccccc2Cl)no1	i	4.8	9	.	-0.7	7	0.71	7	2.5
CCOc1ccccc1NC(=O)c1nnn(-c2ccc3c(c2)OCCO3)c1N	i	-2.5	3	5	-0.5	5	0.73	0	4.7

Structure	FGF22 binding	rRNA inh HTS RFP	rRNA inh HTS	ALR H2O2 inh	HNF4A DNA FP	rRNA inh HTS OD600	E coli growth	Beta2AR agonist	UCH37 DUB inh
CC(Cc1ccsc1)NC(=O)CCc1nnc(CCc2ccccc2)o1 (stereo not drawn)	.	2.2	6	-12	-1.7	-7	0.73	-2	2.7
CCc1noc(C)c1C(=O)NNC(=O)COc1ccc(C)c(C)c1	i	0.3	-4	1	-2.2	-2	0.59	-10	1.1
CCn1c(SCC(=O)Nc2ccc3c(c2)OCCO3)nnc1-c1ccccn1	.	.	.	-6	0.9	.	0.62	-1	3.2
COc1cccc2cc(C(=O)Oc3ccccc3)c(=O)oc12	i	5.8	6	-2	-1.9	9	0.67	-5	5.6
CCOc1cc(CNc2ccccc2)cc(Br)c1OCc1ccc(F)cc1	.	.	.	-29	-1.4	.	0.69	14	2.3
Cc1ccc(NC2=C(Cl)C(=O)OC2NC(=O)c2ccccc2)cc1 (stereo not drawn)	.	.	.	4	-1.0	.	0.67	2	1.1
COC(=O)C1C(=O)OC(C)(C)C1C(C)C(=O)c1ccccc1 (stereo not drawn)	.	.	.	-6	-3.2	.	0.72	-5	7.1
NC(=O)SCC(=O)Nc1ccccc1C(=O)O	i	1.5	12	94*	0.0	5	0.68	-11	6.0
O=c1cc2oc3cc(O)c(O)cc3c(-c3ccccc3[N+](=O)[O-])c-2cc1O	i	13	-38	4	-24	-33	0.78	-7	13
O=NNc1nc2ccccc2n1Cc1ccccc1	i	-8.3	-50	-2	-1.2	-57	0.65	1	4.6
O=C(Nc1ccc(Br)cn1)c1ccc([N+](=O)[O-])cc1Cl	i	-0.9	-11	.	2.7	-16	0.66	-2	0.4
COc1cccc(COC(=O)Cc2ccc(S(=O)(=O)N3CCOCC3)s2)c1OC	i	0.1	-5	-13	-1.4	-10	0.64	-7	3.3
O=C(COC(=O)Cc1ccsc1)Nc1ccc(Cl)c(S(=O)(=O)N2CCOCC2)c1	i	-0.3	-3	-1	-0.3	-8	0.7	2	-0.4
O=C(NCc1ccccc1)C1=C[C@@H](c2coc3ccccc3c2=O)C[C@@H](OCc2ccc(CO)cc2)O1	i	-3.2	-13	-2	-5.0	-19	.	3	-0.7
